# NPYLR7 ag = mosquito NPYLR7 agonism | HEK293T NPYLR7/Galpha15, GCaMP6s calcium fluorescence | 0.15% of 270,000 active | activation, % at 10 µM; in the data active = activation above about 40%;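 also: 0% = vehicle and 100% = reference agonist at the receptor; some compounds past the cut are filed as inactive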
# NPYLR7 ag max-min = recorded beside NPYLR7 ag, whose call it bears; activation, %; measured here: Max-Min RFU normalised activation; some inactives read as strong as hits;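 span of the calcium signal over five minutes; 0% = vehicle and 100% = native peptide agonist; compound fluorescence can raise it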
# * hit, by the source's call; & = joins results of further samples.
# Values in the order: NPYLR7 ag, NPYLR7 ag max-min
C=CCn1c(SCc2ccccc2C#N)nnc1-c1ccccc1F
  19.1, 24.8
COc1ccc(OC)c(NC(=O)c2cc(-c3ccc(Br)cc3)nc3ccccc23)c1
  1.5, 3.2
CC(O)Cc1cn(CC2CCN(C(=O)C3CCCCCC3)CC2)nn1 (stereo not drawn)
  2.8, 0.0
CCC(c1cccs1)n1ccnc1-c1ccc(NC(C)=O)cc1 (stereo not drawn)
  23.2, 15.2
CCOC(=O)C1(CCCc2ccccc2)CCN(C2CCSC2)CC1 (stereo not drawn)
  -8.6, -12.2
Cc1cc(=O)[nH]c(-n2nc(C)cc2NC(=O)c2cccc3ccccc23)n1
  2.4, 0.8
O=C(c1coc(CN2CCN(c3ncccn3)CC2)n1)N1CCN(C2CCCC2)C(=O)C1
  1.7, 0.9
Cc1cc(C)c(S(=O)(=O)NCCn2nc(-c3ccc(Cl)cc3)ccc2=O)c(C)c1
  -2.3, -3.1
CNC(=O)C1CCN(Cc2nc(-c3ccc(OC)c(C)c3C)oc2C)C1 (stereo not drawn)
  -0.2, -0.9
COc1ccc(-c2nnc(SCC(=O)N/N=C(\C)c3ccc([N+](=O)[O-])cc3)n2-c2ccccc2)cc1OC
  11.2, 21.8
CCOC(=O)c1cc(-c2cccc(NC(=O)C3CCN(C(C)=O)CC3)c2)n(-c2cccc(F)c2)n1
  4.6, 0.4
CCCOc1ccccc1NC(=O)c1c(C)noc1C
  -2.1, -5.7
CCn1nnnc1NCc1ccc2c(c1)n(C)c(=O)n2C
  -0.3, -0.7
Cc1ccc(-c2ccc(OCCNS(=O)(=O)c3ccc(C)cc3)nn2)cc1
  -10.8, -16.1
COCCN(Cc1cccc(OS(=O)(=O)c2cccc(C(F)(F)F)c2)c1)S(=O)(=O)c1ccc(OC)cc1
  9.1, 6.8
CC(c1ccc(Cl)cc1)N(C1CC1)S(=O)(=O)c1ccc(S(C)(=O)=O)cc1 (stereo not drawn)
  4.0, 3.6
Cc1cccn2c(=O)c(C=C3SC(=S)N(Cc4ccccc4)C3=O)c(NCC3CCCO3)nc12 (stereo not drawn)
  2.5, 1.5
CCCCCn1c(=O)c2c(nc3n2CC(C)CN3c2ccc(CC)cc2)n(C)c1=O (stereo not drawn)
  7.1, 7.2
CN(Cc1cccnc1)c1cnn(CCOc2ccc(Cl)cc2)c(=O)c1Cl
  4.9, 1.8
Oc1c(C(Nc2ccccn2)c2ccc3c(c2)OCO3)ccc2cccnc12 (stereo not drawn)
  8.3, 8.1
O=C(CCc1c[nH]c2ccccc12)Nc1ccc2c(c1)CN(Cc1cccs1)CC2
  10.5, 4.0
COc1cccc(CN(C)Cc2ncc[nH]2)c1O
  6.7, 5.4
COCCCN(CC(=O)N(Cc1ccc(F)cc1)Cc1cccs1)C(=O)c1cc(Cl)cc(Cl)c1
  2.6, 7.1
C=CCn1c(SC(C)C(=O)c2c(N)n(C)c(=O)n(C)c2=O)nnc1-c1ccoc1C (stereo not drawn)
  6.7, 4.5
COc1ccc(-c2cnnc(NCCC3=CCCCC3)n2)c(OC)c1
  0.8, -1.3
C=CCNC(=O)NCc1ccc(N(C)C(=O)c2ccncc2)cc1
  2.4, -0.6
COC(=O)C1=Cc2ccccc2OC=C1
  -4.7, -8.1
Cn1nc(C(=O)Nc2cc(Cl)ccc2N2CCCC2)ccc1=O
  0.7, -1.7
CCn1c(CC2CCN(C(=O)CCc3ccccc3OC)CC2)nn(C)c1=O
  7.4, 4.1
CN(C(=O)c1ccc(-c2ccc3c(c2)OCCO3)s1)C1CCCCC1
  2.9, -0.6
O=C(c1ccccc1O)N1CCC(Oc2ccccc2)CC1
  3.0, 3.8
COc1ccc(S(=O)(=O)CCc2nnc(N)s2)cc1
  1.2, -1.4
CC(C)(C)c1noc(OCC(=O)Nc2ccccc2)n1
  13.0, 4.3
CN1CCN(C(c2ccc(Cl)cc2Cl)c2cc(Cl)c3cccnc3c2O)CC1 (stereo not drawn)
  3.4, 10.5
COc1ccc(Cl)cc1C(=O)Nc1cccnc1N1CCCC1
  -4.1, -4.9
COC(=O)CCN(C(=O)CC1CCCC1)c1nc2ccccc2o1
  5.8, 5.2
Cn1cnnc1C1CCN(C(=O)CC2COCCN2)CC1 (stereo not drawn)
  1.3, 0.7
COc1ncc(-c2ccccc2Cl)c(OC)n1
  -3.5, -7.6
Cc1ccc(CN(Cc2ccc3c(c2)OCO3)C(=O)CN(CC(C)C)C(=O)COc2ccc(Cl)cc2)o1
  -3.3, 9.4
C/C=C/C=C/C(=O)NC(c1ccc(F)cc1)c1ccc(SCc2ccccc2)cc1 (stereo not drawn)
  0.9, -6.2
Cc1ccc(/C=C/c2nc(-c3c(F)cccc3F)no2)cc1
  -6.8, -8.4
O=C(C=Cc1ccco1)Nc1sc2c(c1C(=O)NC1CCS(=O)(=O)C1)CCCC2 (stereo not drawn)
  0.6, -1.9
CCSCCNc1nc(-c2ccncc2)nc2c1CCNC2
  2.3, 2.6
O=C(C1COc2ccccc2O1)N(Cc1cccnc1)c1nc2ccc(F)cc2s1 (stereo not drawn)
  -17.9, -9.8
O=C(c1nc2ccccn2c1CNCCCn1ncc2ccccc21)N1CCCC1
  5.6, 10.0
CSc1ccc2cc(CN(CC3COc4ccccc4O3)C(=O)CCn3nc(C)cc3C)c(N3CCOCC3)nc2c1 (stereo not drawn)
  11.3, 6.4
Cc1ccccc1-n1c(SCc2ccccc2C#N)nnc1-c1ccccc1F
  13.9, 9.3
Nc1nonc1-c1noc(-c2ccc(I)cc2)n1
  -1.8, -2.9
CCC(C)C(NC(N)=O)C(=O)Nc1ccc(Oc2cccc(C)c2)cc1 (stereo not drawn)
  -5.4, -6.1
O=C(O)CCC(=O)c1sc(Cl)c(Cl)c1Cl
  3.9, -2.6
Cn1cccc(C(=O)N2CCC(N3CCCC(C(=O)NC4CC4)C3)CC2)c1=O (stereo not drawn)
  -16.4, -18.7
CC1(C)C[C@H](NC(=O)c2ccccc2)[C@@]2(CCC(=O)NC3CC3)CC[C@](C)(O)C[C@@H]12
  -9.1, -14.7
O=C(Nc1ccccc1C(=O)NCc1ccco1)c1cccs1
  2.1, -0.5
CCCn1c(N/N=C\c2ccc(Cl)cc2)nc2c1c(=O)[nH]c(=O)n2C
  -5.7, -7.6
COc1cccc(C=Nc2cccc3c(=O)[nH][nH]c(=O)c23)c1O
  9.7, 8.2
COCCNC(=O)[C@@]1(OCc2cccc(OC)c2)CC(OCc2ccc(C)cc2)[C@H](O)[C@H](O)C1 (stereo partly drawn)
  -2.7, -6.1
CCN1CCN(C(=O)CCC2CCN(C(=O)C3=C(C)OCCO3)CC2)CC1
  12.9, 8.0
Cc1nc(C)c(Cc2ccccc2F)c(N2CCN(S(=O)(=O)c3ccc(Cl)cc3)CC2)n1
  -0.5, 0.8
CCc1ccccc1NC(=O)N1CCC2(CC1)SCCN2C(=O)c1cccc(F)c1
  -6.7, 3.2
COc1ccc2c(c1)c1nc3cc4ccccc4cc3nc1n2Cc1ccccc1
  -15.0, -22.5

# Random excerpt: seven entries already listed
# Values in the order: NPYLR7 ag, NPYLR7 ag max-min
COc1cccc(C=Nc2cccc3c(=O)[nH][nH]c(=O)c23)c1O
  9.7, 8.2
O=C(O)CCC(=O)c1sc(Cl)c(Cl)c1Cl
  3.9, -2.6
COCCNC(=O)[C@@]1(OCc2cccc(OC)c2)CC(OCc2ccc(C)cc2)[C@H](O)[C@H](O)C1 (stereo partly drawn)
  -2.7, -6.1
COc1ccc2c(c1)c1nc3cc4ccccc4cc3nc1n2Cc1ccccc1
  -15.0, -22.5
CCC(C)C(NC(N)=O)C(=O)Nc1ccc(Oc2cccc(C)c2)cc1 (stereo not drawn)
  -5.4, -6.1
Cn1cccc(C(=O)N2CCC(N3CCCC(C(=O)NC4CC4)C3)CC2)c1=O (stereo not drawn)
  -16.4, -18.7
CCc1ccccc1NC(=O)N1CCC2(CC1)SCCN2C(=O)c1cccc(F)c1
  -6.7, 3.2

# More records
# Values in the order: NPYLR7 ag, NPYLR7 ag max-min
O=C(Nc1ccc(I)cc1)Nc1ccc(Cl)c(Cl)c1
  2.9, 1.0
O=C(CC1CC2CCC1C2)NCc1coc(-c2cccs2)n1 (stereo not drawn)
  11.2, 10.4
Cn1cnnc1C1CCN(c2nccc(CCC(F)(F)F)n2)CC1
  20.6, 14.0
O=C(O)c1cc(Br)ccc1N=Cc1nc(-c2ccc(Br)cc2)oc1O
  -1.7, -5.7
CC(=O)Nc1ccc(Sc2nc(N3CCCC3)nc(N3CCCC3)n2)cc1
  8.6, -0.5
C#CCN1C(=O)SC(=Cc2ccc(N3CCCCC3)o2)C1=O
  121.9*, 109.8*
C[C@]12CS(=O)(=O)C[C@H]1SC(=S)N2c1ccccc1
  4.2, 2.9
CCCN(CCC)c1ccc(C(=S)N2CCNCC2)cc1
  -2.5, -1.1
N#Cc1ccc(NCc2cc(Br)ccc2F)cc1
  -9.3, -12.0
NC(=O)NC(=O)CSc1nc(N)cc(=O)[nH]1
  0.4, -1.2
O=C(NCCn1ncc2c(N3CCN(c4ccccc4)CC3)ncnc21)c1cc(-c2ccccc2)on1
  -0.5, -2.0
COc1ccc(CCNC(=O)c2cn(C)nc2OC)cc1OC
  3.1, 2.6
CC(C)c1cc(C2CCN(Cc3cccnc3N)CC2)[nH]n1
  -3.3, -4.5
CN(CC(N)=O)S(=O)(=O)c1cc2cc(Cl)ccc2s1
  -1.3, -1.1
COc1cccc(-c2nc(CN3CCCC3c3nccs3)c(C)o2)c1OC (stereo not drawn)
  5.6&-5.9, 0.3&-12.8

# Given tab-delimited: 5 of the compounds above
canonical_smiles	NPYLR7 ag	NPYLR7 ag max-min
O=C(O)c1cc(Br)ccc1N=Cc1nc(-c2ccc(Br)cc2)oc1O	-1.7	-5.7
CC(=O)Nc1ccc(Sc2nc(N3CCCC3)nc(N3CCCC3)n2)cc1	8.6	-0.5
C#CCN1C(=O)SC(=Cc2ccc(N3CCCCC3)o2)C1=O	121.9*	109.8*
C[C@]12CS(=O)(=O)C[C@H]1SC(=S)N2c1ccccc1	4.2	2.9
CCCN(CCC)c1ccc(C(=S)N2CCNCC2)cc1	-2.5	-1.1

# The listing continues.
# Values in the order: NPYLR7 ag, NPYLR7 ag max-min
Cn1cnnc1SCc1ccc(C(=O)NNC(=O)c2c(F)cccc2Cl)cc1
  2.1, 2.1
COC(=O)c1ccccc1NC(=S)N1CCC[C@H]1C(=O)OCCc1ccc(OC)c(OC)c1
  -14.1, -23.2
O=C(c1ccc(NS(=O)(=O)c2ccc(F)cc2)cc1)N1CCCCC1
  -1.3, -4.9
Cc1cccc(NC(=O)CSc2nc3c([nH]c4ccccc43)c(=O)n2C)c1C
  0.1, 15.9
Cc1cccc(C)c1-n1c(=O)c2ccccc2n2c(SCC(=O)N3CCCCC3)nnc12
  8.9, 5.4
CCC1CN(C)c2ccccc2CN1C(=O)c1ccc(C(N)=O)nc1 (stereo not drawn)
  0.0, -2.4
COC(=O)c1nnn(-c2ccc(Br)cc2F)c1C(=O)OC
  6.2, 6.5
O=c1ccn(Cc2ccn(C3CCCC3)n2)c2ccsc12
  0.4, -0.3
OC(CCc1ccccc1)C1CCN(Cc2nc(-c3ccccn3)no2)CC1 (stereo not drawn)
  4.3, -1.1
O=C(Nc1cc(-c2ccccc2)nn1-c1ccc(Br)cc1)c1cc(F)cc(C(F)(F)F)c1
  19.1, 9.7
COc1cccc(CN2CCCN(C(=O)C3CCC3)CC2)c1F
  4.0, 4.1
O=C(Nc1ccc2c(c1)-c1ccccc1C2)c1ccc(S(=O)(=O)N2CCCC2)o1
  8.6, 2.0
Cc1cccc2[nH]c(CN(C)C(=O)c3cccc(NCc4cccs4)c3)nc12
  5.5, -2.1
COc1ccc(-n2nnnc2CNC(=O)c2ccccc2S(=O)(=O)C(F)F)cc1
  0.6, -0.2
O=C(O)CC1C=CS(=O)(=O)C1 (stereo not drawn)
  6.9, 15.0

# One compound at a time (already shown). Order of values: NPYLR7 ag	NPYLR7 ag max-min
# Cc1cccc2[nH]c(CN(C)C(=O)c3cccc(NCc4cccs4)c3)nc12 as listed: 5.5	-2.1
# O=C(Nc1cc(-c2ccccc2)nn1-c1ccc(Br)cc1)c1cc(F)cc(C(F)(F)F)c1 as listed: 19.1	9.7
# Cn1cnnc1SCc1ccc(C(=O)NNC(=O)c2c(F)cccc2Cl)cc1 as listed: 2.1	2.1
# OC(CCc1ccccc1)C1CCN(Cc2nc(-c3ccccn3)no2)CC1 (stereo not drawn) as listed: 4.3	-1.1
# O=C(O)CC1C=CS(=O)(=O)C1 (stereo not drawn) as listed: 6.9	15.0

# Additional compounds follow.
# Values in the order: NPYLR7 ag, NPYLR7 ag max-min
CSc1nnc2c(n1)OC(c1ccc3c(c1)OCO3)Nc1ccc(Br)cc1-2 (stereo not drawn)
  3.1, 2.3
COc1ccc(C2CC(=O)C3=C(C2)N=C(C)C(C#N)C3c2ccc(OC(C)=O)c(OC)c2)cc1 (stereo not drawn)
  -5.6, -10.4
CC1(C)O[C@@H]2C[C@@](OCc3cccc(Cl)c3)(C(=O)NCC3CCCO3)CC(OCc3c(F)cccc3F)[C@@H]2O1 (stereo partly drawn)
  -0.2, 0.2
COc1ccc(CNc2nc3ccccc3nc2C)cn1
  2.7, 0.5
COc1cc(NC(=O)c2ccno2)c(OC)cc1Cl
  8.0, 5.0

# From PubChem BioAssay

# The list is partial; the hit share may differ from the screen's.
